HIV TAR-Tat = TAR RNA-Tat peptide displacers, HIV-1, primary screen, biochemical, FRET, FAM/TAMRA-labeled Tat | HIV-1 TAR RNA, Tat peptide displacement FRET; active compounds read high | z-score (test concentration not listed) | actives 0.6% (n = 100,000);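 note: score is relative to mean and SD of negative controls; some compounds called inactive have numbers as strong as hits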
CDC25B-CDK2 inh = primary biochemical HTRF screen for blockers of M-phase inducer phosphatase 2 binding to CDK2/cyclin A | HTRF CDC25B-CDK2/CyclinA binding, anti-His/anti-Flag; active compounds read high | z-score (no concentration beside the values) | actives 0.72% (n = 94,000) | AID 1259370, 2018;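 note: score is relative to mean and SD of negative controls; strong numbers were not always called active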
Active calls of the source: *; . = not tested or not shown.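 Rule for the calls: active = z-score from 3 up in half or more of its runs; inactive = the rest.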

SMILES	HIV TAR-Tat	CDC25B-CDK2 inh
Cc1cc2[nH]c(=O)c(=O)[nH]c2cc1S(=O)(=O)N1CCCCC1	1.1	.
O=C(NCCC1=CCCCC1)C1CCN(c2nc3cccnc3s2)CC1	0.21	.
CC(=O)Nc1nc(NC(C)=O)nc(-c2ccccn2)n1	.	4.6
Cc1cc(NS(=O)(=O)c2ccc(NC(=O)c3ccco3)cc2)no1	1.2	0.05
Cn1ncc2c(=O)n(CC(=O)Nc3ccc(F)cc3)cnc21	1.1	-0.11
COc1ccc(-c2cc(-c3nc(-c4ccccc4C)no3)[nH]n2)c(OC)c1	0.37	.
O=C(COc1ccc(Br)cc1)N(Cc1ccco1)C1CCS(=O)(=O)C1 (centres undefined)	1.1	-0.77
CCCCN(CC)C(=O)CCCn1c(=O)c2cccn2c2ccccc21	1.7	.
O=C(NCC(c1ccco1)S(=O)(=O)c1ccc(F)cc1)C(=O)NC1CC1 (centres undefined)	1.4	.
O=C(NCc1nnnn1-c1ccccc1)Nc1cccc(Cl)c1	1	.
O=C(Nc1ccc2oc(-c3ccccc3Cl)nc2c1)c1ccc([N+](=O)[O-])o1	0.76	-1.6
O=C(CCS(=O)(=O)c1cccc2nsnc12)N1CCOCC1	0.42	0.74

(more compounds)
SMILES	HIV TAR-Tat	CDC25B-CDK2 inh
COCCCNC(=O)Cn1c2ccccc2c2nc(=O)cc(C)n21	-0.94	-0.66
CC1(C)CC(=O)c2cn(-c3ccc(F)cc3)c(=O)c(C(=O)N3CCC(N4CCCCC4)CC3)c2C1	-0.13	.
O=S1(=O)CCCCN1c1ccc(S(=O)(=O)N2CCCC2)cc1	2.4	.
CCn1cc(CN(C(=O)Nc2ccc(Cl)cc2)C(C)C)c2ccccc21	.	-0.19
COc1ccc(-n2c(COc3ccccc3)n[nH]c2=S)cc1	.	0.15
O=C(Cn1cc(NC(=O)c2cc(-c3ccc(F)cc3)no2)cn1)NCc1ccco1	2.2	.
CC1CCC(NC(=O)Cn2cc3c(n2)CCCCCC3)CC1 (centres undefined)	0.3	-1.9
O=C(CSc1nc(-c2ccc3c(c2)OCO3)nc2cc(=O)[nH]n12)Nc1ccccc1	2	.
COc1cc(C2OC(c3ccc(F)cc3)=NN2C(C)=O)ccc1Oc1ccc([N+](=O)[O-])cn1 (centres undefined)	1	.
O=C(Nc1nnc(C2CC2)s1)c1cccnc1Oc1ccc(Cl)cc1	.	-1.8
CCOc1cc(-c2cc(C(=O)O)c3c(-c4ccc(CC)cc4)[nH]nc3n2)ccc1O	3.9	.
COc1ccc(-c2csc3ncnc(NCc4ccc5c(c4)OCO5)c23)cc1	1.4	.

Ordered by formula weight (rising): 3 of the compounds above
SMILES	HIV TAR-Tat	CDC25B-CDK2 inh
O=C(NCc1nnnn1-c1ccccc1)Nc1cccc(Cl)c1	1	.
Cc1cc(NS(=O)(=O)c2ccc(NC(=O)c3ccco3)cc2)no1	1.2	0.05
O=C(NCC(c1ccco1)S(=O)(=O)c1ccc(F)cc1)C(=O)NC1CC1 (centres undefined)	1.4	.

Next entries follow:
SMILES	HIV TAR-Tat	CDC25B-CDK2 inh
O=C(NCCN1CCOCC1)Nc1cnc2ccccn2c1=O	2.1	-1.9
Cc1ncc(-c2ccc(S(=O)(=O)Nc3cccc4c3CCCC4)cc2)o1	0.08	.
Cn1c(=O)oc2cc(S(=O)(=O)CCC(=O)Nc3ccc(F)c(Cl)c3)ccc21	1.2	.
CCOC(=O)c1csc(N/N=C2\CCc3ccccc32)n1	.	-1.6
CCOC(=O)N1CCC(Nc2c(NCc3ccccn3)c(=O)c2=O)CC1	0.36	-1.1
Cc1ccc(Nc2ncnc3c2cnn3-c2ccc(F)cc2)c(C)c1	0.73	.
Cc1cc(C)c2c(n1)sc1c(N3CCN(CCO)CC3)ncnc12	.	-0.53
O=C1CCc2cc(S(=O)(=O)N3CCN(C(=O)c4ccco4)CC3)ccc2N1	.	0.12
CCCN=C1NS(=O)(=O)C(c2ccc(C)cc2)=C1C	0.35	-1.8
CC(=O)Oc1ccc2c(C)c(Cl)c(=O)oc2c1	.	-0.04
CCOCCc1nn2c(=O)cc(COC(=O)CC(C)C)nc2s1	-0.95	.
COc1ccc(N2CCN(c3oc(/C=C/c4ccccc4OC)nc3C#N)CC2)cc1	0.29	-0.96

New compounds follow
SMILES	HIV TAR-Tat	CDC25B-CDK2 inh
CN(C)c1nc(N)c2c(ncn2C)n1	0.35	-1.6
Cc1ccc(CNC(=O)CN2CCSc3ccccc32)o1	0.74	.
CNc1ncnc2c1C(c1ccccc1)c1c(NC)ncnc1O2	.	-1.4
C/C(=N\O)C(C)(C)Nc1ccccc1F	.	-0.75
CCN(CC)C(=O)C1c2ccccc2C(=O)N(CC(C)C)C1c1cccs1 (centres undefined)	2.9	.
COCCOC(=O)c1[nH]c2c(c1C)C(=O)C(C(=O)OC)C(C)C2 (centres undefined)	2	-2.2
Cc1ccc(C)n1-c1sc2c(c1C(=O)O)CCCC2	-0.52	-2.3
CCSc1n[nH]c2nc3ccccc3n12	1.8	-2.7
COc1ccc(OC)c(NC2=NS(=O)(=O)C(c3ccc(Cl)cc3)=C2C)c1	-2.5	-2.4
CCOC(=O)c1cnc(SC)nc1Nc1cc(S(=O)(=O)CC)ccc1O	2.2	-0.03
Cc1cc2nc(COC(=O)c3ccccc3F)cc(=O)n2o1	-0.28	.
O=C(O)c1nnn(Cc2ccc(Br)cc2)c1C(=O)O	1.4	-0.44

Next part:
SMILES	HIV TAR-Tat	CDC25B-CDK2 inh
Cc1cc(C)c(S(=O)(=O)Nc2ccc(-c3ccc(S(C)(=O)=O)nn3)cc2)cc1C	-0.22	.
O=[N+]([O-])c1ccc(Nc2ccc(F)cc2)cc1	.	-2.4
CCN(CC)c1ccc(N=Nc2ccc(N(C)C)cc2)c(NC(N)=O)c1	.	-1.8
Cc1ccccc1C(=O)Nc1cc(C#N)c2sc3ccccc3n2c1=O	0.35	0.34
CCNS(=O)(=O)c1ccc2c(c1)C(=O)c1cc(S(=O)(=O)NCC)ccc1-2	0.08	-0.26
O=C(Nc1ccc(Br)cc1)N1CCC(CN2CCCCC2)CC1	-0.24	.
O=C(Cn1nc(-c2ccc(F)cc2)c2ccccc2c1=O)c1ccc(F)cc1	-0.04	-1.5
COc1ccccc1OCCCn1c(C2CCCO2)nc2ccccc21 (centres undefined)	2.2	-0.98
O=C1CS/C(=N\N=C\c2ccccc2O)N1c1cccc(F)c1	.	-0.66
Cn1cc(C(c2ccccc2)c2cccs2)c2ccccc21 (centres undefined)	-0.92	-1.5
Cc1nn(-c2nncc(-c3ccc(F)cc3)n2)c2c1C(c1ccccc1F)CC(=O)N2 (centres undefined)	2.8	0
Cc1cc(C2CCCN2C(=O)c2cnn3c(C(F)(F)F)cc(-c4ccco4)nc23)on1 (centres undefined)	-1.6	.

The list goes on:
SMILES	HIV TAR-Tat	CDC25B-CDK2 inh
COc1ccc(Cn2cc3c(-c4ccc(OC)cc4)nnc-3c3cc4c(cc32)OCO4)cc1	0.47	-2.3
O=C(CN1CCN(Cc2ccccc2)CC1)Nc1ccccc1Oc1ccccc1	.	-1.7
CN(C)C(=O)Cc1coc2ccc3ccccc3c12	-0.81	0.51
CCN(CCNc1ncnc2onc(-c3cc(F)cc(F)c3)c12)Cc1ccccc1	0.34	.
CCc1ccc(NC(=O)CSc2nc(-c3ccco3)nc3cc(=O)[nH]n23)cc1	0.46	.
Cc1cc(S(=O)(=O)[C@H]2CS(=O)(=O)C[C@@H]2N(C)CCc2ccncc2)ccc1F	0.18	-0.35
CC(C)(C)NC(=O)c1nn2c(c1Br)NC(c1ccccc1)CC2C(F)(F)F (centres undefined)	3.1	-1.3
CC1=C(c2ccc(C)cc2)S(=O)(=O)N=C1Nc1cc(-c2ccccc2Cl)no1	0.06	-0.34
O=C1OC(N2CCN(C(=O)c3ccco3)CC2)c2ccccc21 (centres undefined)	.	1.5
O=C(c1ccc(Br)cc1)c1cc2c(cc1Br)OCCCO2	.	-1.2
FC(F)(F)c1cc(/C=C/c2noc(CN3CCCC3)n2)cc(C(F)(F)F)c1	.	-1.9
Cc1cc(NS(=O)(=O)c2ccc(-c3ccc(=O)[nH]n3)o2)ccc1Br	2.5	.

(continued)
SMILES	HIV TAR-Tat	CDC25B-CDK2 inh
CC1=C(C(=O)OC(C)C)C(c2cccnc2)C2=C(CC(c3ccc(Cl)cc3)CC2=O)N1 (centres undefined)	2	-0.05
Clc1ccc(-n2ncc3c(NCc4ccc5c(c4)OCO5)ncnc32)cc1	1.6	.
CN1CCc2c(sc3c2CNC(c2cccc(Cl)c2)c2cccn2-3)C1 (centres undefined)	-0.91	1.6
CN(C(=O)CSc1nnc(-c2cccnc2)o1)c1ccc(F)cc1	2.5	-0.13
O=C(COc1ccc(Cl)cc1Cl)OCC(Cl)=C(Cl)Cl	.	-0.22
O=C1C2Sc3[nH]c(=O)sc3C(c3ccccc3)C2C(=O)N1c1ccc(Br)cc1 (centres undefined)	.	-2.3
COc1c(C)c2c(c(O)c1C/C=C(\C)CCC(=O)O)C(=O)OC2	2.5	.
CCOc1ccc(N(Cc2cc3cc(OC)ccc3[nH]c2=O)S(C)(=O)=O)cc1	2.9	-1.1
Fc1ccc(N2CCN(c3ncnc4c3nc3n4CCCC3)CC2)cc1	-0.55	-0.74
O=C1CCCC2=C1C(c1ccncc1)n1nc(-c3cccc(Cl)c3)nc1N2 (centres undefined)	0.09	-0.85
O=c1oc2c(-c3ccccc3)n[nH]c(=O)c2c2c1CCC2	.	-1.8
CCc1c(C)nc2ncnn2c1Nc1ccc(F)cc1	0.34	-0.98

Additional records.
SMILES	HIV TAR-Tat	CDC25B-CDK2 inh
COc1cc(C2C(C#N)=C(N)Oc3nc[nH]c(=O)c32)cc(OC)c1OC (centres undefined)	.	-1.7
O=C(O)CCC1CCCCCCCCCCC1	.	-1.9
N#Cc1c(-c2ccccc2)c(-c2ccccc2)n[nH]c1=O	.	-0.47
CN(C)C(=O)C(=O)c1c(-c2ccc(Cl)cc2)[nH]c2ccccc12	1.7	1.4
CCOC(=O)c1oc2ccc(S(=O)(=O)n3nc(-c4ccc(C)cc4)cc3N)cc2c1C	1.9	-1.8
COCC(C)NC(=O)c1onc(C)c1Cl (centres undefined)	1.6	-0.63
COc1ccc2c(c1)C(O)(CC(=O)c1ccc(-c3ccc(Cl)cc3)o1)C(=O)N2 (centres undefined)	-0.49	.
O=C(CSc1nc(-c2cccc(Cl)c2)nc2cc(=O)[nH]n12)NCCc1ccccc1	2.4	.
CC(C)(C)C(=O)Cn1c(=O)n(CCCC(=O)NCc2ccco2)c(=O)c2sccc21	.	1.2
Cc1ccc(CN2CCN(C3CCN(S(=O)(=O)c4cccc5nsnc45)CC3)C2=O)cc1	-3.3	.
COc1ccc2nc(NS(=O)(=O)c3ccc(Cl)cc3)c(NCc3ccc4c(c3)OCO4)nc2c1	2.1	-1.5
Cc1sc2nc(-c3ccccc3F)oc(=O)c2c1C	0.19	0.17

In a second layout: 2 of the compounds above.
COc1cc(C2C(C#N)=C(N)Oc3nc[nH]c(=O)c32)cc(OC)c1OC (centres undefined)
  HIV TAR-Tat = .
  CDC25B-CDK2 inh = -1.7

CC(C)(C)C(=O)Cn1c(=O)n(CCCC(=O)NCc2ccco2)c(=O)c2sccc21
  HIV TAR-Tat = .
  CDC25B-CDK2 inh = 1.2

(continued)
SMILES	HIV TAR-Tat	CDC25B-CDK2 inh
Cn1cc(S(=O)(=O)N2CCOCC2)cc1C(=O)NC1CCCC1	2.6	.
Cc1ccc(C(CNC(=O)c2cc(=O)c3ccc(C)c(C)c3o2)N(C)C)o1 (centres undefined)	0.55	-2.4
CCOc1ccc(-c2ccc(NS(=O)(=O)c3ccc(C)cc3)cc2)nn1	0.88	.
CN(C)c1ccc(C(=O)CC2(O)C(=O)N(Cc3ccccc3)c3ccccc32)cc1 (centres undefined)	-0.14	-0.15
O=C1CCCC2=C1C(c1ccncc1)c1c(nc(SCc3ccccc3)[nH]c1=O)N2 (centres undefined)	.	-1.2
Cc1noc2ncnc(SCC(=O)Nc3ccccc3Cl)c12	.	-0.66
Cc1nn2c(=O)cc(CSc3nnc(-c4ccccc4F)o3)nc2s1	0.61	-1.3
COc1ccc(Cc2nc(S(=O)(=O)c3ccc(Cl)cc3)c(N3CCOCC3)o2)cc1	0.98	1.6
COc1ccc(OC)c(C2CC(=O)NC3=C2C(=O)CC(c2cccs2)C3)c1 (centres undefined)	.	-1.6
CCc1ccc(NS(=O)(=O)c2cc(-c3cc(C)no3)ccc2CC)cc1	0.61	.
N#CCCN(CCc1ccccn1)S(=O)(=O)c1ccc2c(c1)CCO2	.	0.23
O=C(CSc1nnc(Cc2cccs2)n1-c1ccccc1)c1c[nH]c2ccccc12	1.3	-1.3

Continued; it opens with the two that closed the last part.
SMILES	HIV TAR-Tat	CDC25B-CDK2 inh
N#CCCN(CCc1ccccn1)S(=O)(=O)c1ccc2c(c1)CCO2	.	0.23
O=C(CSc1nnc(Cc2cccs2)n1-c1ccccc1)c1c[nH]c2ccccc12	1.3	-1.3
CC(=O)Nc1cc(C)ccc1OC(C)(C)C(=O)OC(C)(C)C	.	-1.9
CCN(CC)CCn1c(C)c(C)c2c1ncn1nc(-c3cccnc3)nc21	1.2	-2
Cc1ccc(S(=O)(=O)Nc2ccccc2C(=O)Nc2nc3c(s2)C(=O)CC(C)(C)C3)cc1	.	-0.93
CCc1ccc(C2CC(c3cccc(Cl)c3)n3ncnc3N2)cc1 (centres undefined)	0.79	1.7
O=C(c1ccccc1)N1CCN(Cc2cc(=O)n3ccccc3n2)CC1	1.1	.
O=c1c([N+](=O)[O-])c(O)c2ccccc2n1Cc1ccccc1	-0.58	-1.1
O=C(O)CCS(=O)(=O)Cc1ccccc1F	1.7	.
CCC(CC)C(=O)N(c1ccccc1)C1C=CS(=O)(=O)C1 (centres undefined)	0.96	-2.9
Cc1cc(C)cc(Nc2nc3ccc(Cl)cc3n3nnnc23)c1	-0.88	-2.7
